Bioassay records deposited in PubChem by National Center for Advancing Translational Sciences (NCATS).
miR-21 FLuc: qHTS Assay for Modulators of miRNAs and/orActivators of miR-21; HeLa miR-21 FLuc reporter, luciferase, 48 h; Potency, µM (series often up to 38.3 µM), for the others: top-dose reporter change, positive = more light; 340,000 tested, under 10 active; active = well fitted rising curve with a large enough effect; inconclusive = small, poorly fitted or top-dose-only effect; inactive = no such curve, though single readings can be large or run the other way;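 also: % of control where 0% means no effect; miR-21 action dims this reporter so a rising signal means less miR-21 action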
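HeLa cells endogenously expressing miR-21, stably carrying CMV-driven firefly luciferase with a downstream miR-21 binding site, 2000 cells/well. Titrations up to approximately 40 uM, 48 hours; luciferase luminescence read.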
GLA inh pH 4.5: qHTS Assay for Inhibitors of Human alpha-Galactosidase at pH 4.5; activity change, negative = inhibition, % at 105 µM; AID 1467, 2008; purified enzyme, 4-MU-alpha-Gal fluorescence, pH 4.5; 230,000 tested, under 10 active; inconclusive = small, poorly fitted or top-dose-only inhibition, or a rising curve; inactive = flat fitted curve, though single readings scatter; no compound was filed as active;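 also: 0% = full activity with enzyme and -100% = basal without enzyme; dose as in the result columns while the protocol names 77 µM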
Rango dissoc inh: qHTS Assay for Inhibitors of RanGTP induced Rango (Ran-regulated importin-beta cargo) - Importin beta complex dissociation; Snurportin-1 (Homo sapiens) + GTP-binding nuclear protein Ran (Homo sapiens) + Importin …; Biochemical FRET Rango-importin beta, RanGTP-induced dissociation; Potency, µM (titrated, usually from 46.1 µM), for inactives: top-dose activity change, negative = inhibition; 340,000 compounds, 0.071% hits; AID 540253, 2011; active means falling FRET ratio curve, often poorly fitted, with flat reads before Ran was added; inconclusive means other falling curves, or compound fluorescence or quenching; inactive means flat or rising ratio curve;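 also: potency is read from the fitted curve at half-maximal effect; % of control where 0% means no effect; nearly all actives have a fitted effect of over 45% in size; -100% = wells without RanGTP and RCC1; the record marks most hits as doubtful in a second field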
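Rango FRET biosensor (snurportin-1 IBB flanked by N-terminal EYFP and C-terminal CFP10) at 0.1 uM, with 0.25 uM importin beta in PBS, 1mM DTT, 0.02% Tween-20, 0.1% BSA. 0.6 uM Ran, 2mM GTP and 0.2 uM RCC1 were then added for 45 min at room temperature. Inhibition read as loss of FRET rise.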
Rango-impB inh: qHTS Assay for Inhibitors of Rango (Ran-regulated importin-beta cargo) - Importin beta complex formation; Importin subunit beta-1 (Homo sapiens), Q14974; Rango CFP/YFP FRET sensor + importin beta, 45 min; Potency, µM (doses to about 92.2 µM), for inactives: top-dose inhibition of complex formation; 340,000 compounds, 0.031% hits; active = rising FRET ratio curve, often small or poorly fitted; inconclusive = mostly compound fluorescence or quenching in the first reads; inactive = flat curves in all reads;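 also: potency is read from the fitted curve at half-maximal effect; 0% = DMSO wells and 100% = buffer wells lacking importin beta; nearly all actives have a fitted effect of over 15% in size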
Target sequence (Q14974 whole entry, looked up): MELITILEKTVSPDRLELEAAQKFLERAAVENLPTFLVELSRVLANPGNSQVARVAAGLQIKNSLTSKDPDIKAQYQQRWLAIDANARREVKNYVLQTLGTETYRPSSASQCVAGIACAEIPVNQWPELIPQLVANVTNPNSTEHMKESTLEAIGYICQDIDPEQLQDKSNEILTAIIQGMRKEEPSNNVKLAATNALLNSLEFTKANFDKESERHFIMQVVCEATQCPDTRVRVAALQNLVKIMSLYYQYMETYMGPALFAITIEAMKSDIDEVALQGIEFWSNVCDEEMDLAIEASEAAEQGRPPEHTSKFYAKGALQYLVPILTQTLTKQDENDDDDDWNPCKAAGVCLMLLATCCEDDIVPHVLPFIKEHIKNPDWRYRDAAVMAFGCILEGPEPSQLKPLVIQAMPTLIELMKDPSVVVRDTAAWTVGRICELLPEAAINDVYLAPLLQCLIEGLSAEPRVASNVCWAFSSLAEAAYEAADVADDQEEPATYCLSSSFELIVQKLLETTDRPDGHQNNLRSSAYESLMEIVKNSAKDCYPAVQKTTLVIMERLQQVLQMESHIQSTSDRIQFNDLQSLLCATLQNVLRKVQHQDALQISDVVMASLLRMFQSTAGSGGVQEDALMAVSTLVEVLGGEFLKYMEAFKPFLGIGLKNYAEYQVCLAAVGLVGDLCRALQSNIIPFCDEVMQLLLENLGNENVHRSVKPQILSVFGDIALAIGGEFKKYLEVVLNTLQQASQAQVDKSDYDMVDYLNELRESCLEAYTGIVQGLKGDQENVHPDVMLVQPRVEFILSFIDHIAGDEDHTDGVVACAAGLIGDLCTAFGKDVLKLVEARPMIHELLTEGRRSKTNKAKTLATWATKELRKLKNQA
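FRET biosensor (snurportin 1 IBB flanked by EYFP and cerulean), 50 nM, with compound 5 min, then 0.125 microM importin beta in PBS, 1 mM DTT, 0.02% Tween-20, 0.1% BSA. CFP/YFP ratio read after 45 min at room temperature; pre-read flags interference.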
* marks the source's active call; other numbers are inactive results.

How did COCCCNCCCOc1ccc(C)cc1Br do in these assays?
miR-21 FLuc: -2%; GLA inh pH 4.5: -3; Rango dissoc inh: 21%; Rango-impB inh: 0.4%

Results for COc1cccc(NC(=O)CN(C)C(=O)CCc2nc3sc4c(c3c(=O)[nH]2)CCCC4)c1 ?
miR-21 FLuc: 3%; Rango dissoc inh: 1%; Rango-impB inh: inconclusive

Results for COc1ccc(C2CC(=O)c3c(C)nc(N4CCN(Cc5ccccc5)CC4)nc3C2)cc1OC (stereo unspecified) ?
miR-21 FLuc: inconclusive; GLA inh pH 4.5: -1; Rango dissoc inh: 1%; Rango-impB inh: 2.9%

Results for O=[N+]([O-])c1cccc(-c2nc(-c3ccccc3)no2)c1 ?
miR-21 FLuc: -11%; GLA inh pH 4.5: 2; Rango dissoc inh: 12%; Rango-impB inh: 1.3%

Results for CCCCCn1c(=O)[nH]c2cc(C(=O)N3CCN(c4ccc(F)cc4)CC3)ccc2c1=O ?
Rango dissoc inh: -6%; Rango-impB inh: -4.7%

What do the screens show for `COc1ccc(C(=O)N(Cc2ccccc2)c2cccc(C)c2)cc1S(=O)(=O)N1CCOCC1`?
Rango dissoc inh: -11%; Rango-impB inh: inconclusive

Results for COc1ccc(CNC(=O)c2cc(C3CC3)nc3c2cnn3C(C)C)cc1OC ?
Rango dissoc inh: -4%; Rango-impB inh: -0.5%

How did O=C(NC1CCCCCC1)c1cccnc1Sc1ccccc1 do in these assays?
miR-21 FLuc: -8%; GLA inh pH 4.5: -8; Rango dissoc inh: 10%; Rango-impB inh: 1.4%

How did COc1ccc(N/C=C(\C#N)c2nc3ccccc3n2C)c(OC)c1 do in these assays?
miR-21 FLuc: -15%; GLA inh pH 4.5: 4; Rango dissoc inh: -20%; Rango-impB inh: inconclusive

How did O=C1Nc2cc3c(cc2C1=O)sc1ccccc13 do in these assays?
miR-21 FLuc: -18%; GLA inh pH 4.5: -1; Rango dissoc inh: -18%; Rango-impB inh: -3.6%

Brought forward from above: 2 entries, then new ones.
How did COc1ccc(N/C=C(\C#N)c2nc3ccccc3n2C)c(OC)c1 do in these assays?
miR-21 FLuc: -15%; GLA inh pH 4.5: 4; Rango dissoc inh: -20%; Rango-impB inh: inconclusive

How did O=C1Nc2cc3c(cc2C1=O)sc1ccccc13 do in these assays?
miR-21 FLuc: -18%; GLA inh pH 4.5: -1; Rango dissoc inh: -18%; Rango-impB inh: -3.6%

How did CN(Cc1ccccc1)C(=O)c1ccc(Cl)c([N+](=O)[O-])c1 do in these assays?
miR-21 FLuc: -2%; GLA inh pH 4.5: 8; Rango dissoc inh: 8%; Rango-impB inh: -1.8%

How did NC(=O)C1CCN(CC(=O)NCc2ccccc2)CC1 do in these assays?
miR-21 FLuc: -3%; GLA inh pH 4.5: 3; Rango dissoc inh: -13%; Rango-impB inh: 0.6%

What do the screens show for `CC12CN3CC(C)(CN(C1)C3c1ccc([N+](=O)[O-])o1)C2` (stereo unspecified)?
miR-21 FLuc: 3%; GLA inh pH 4.5: 3; Rango dissoc inh: 1%; Rango-impB inh: 0.2%

What do the screens show for `Cc1cc(NC(=O)C2CC(=O)N(c3ccccc3C)C2)no1` (stereo unspecified)?
miR-21 FLuc: 3%; Rango dissoc inh: -11%; Rango-impB inh: 1.0%

Results for Cc1cc(NC(=O)c2ccc3c(c2)C(=O)N(Cc2ccccc2)C3=O)no1 ?
miR-21 FLuc: 0%; GLA inh pH 4.5: -1; Rango dissoc inh: -2%; Rango-impB inh: -1.1%

How did O=C(CSc1nc(=O)n(CCCN2CCOCC2)c2c1CCC2)Nc1ccc(F)cc1 do in these assays?
Rango dissoc inh: -5%; Rango-impB inh: 1.4%

What do the screens show for `O=C1CCCN1c1ccc(S(=O)(=O)N2CCCCC2)cc1[N+](=O)[O-]`?
miR-21 FLuc: 0%; GLA inh pH 4.5: 1; Rango dissoc inh: 7%; Rango-impB inh: 5.4%

Results for COc1ccc(S(=O)(=O)NCCSc2ccc(C)cc2)cc1OC ?
miR-21 FLuc: -8%; GLA inh pH 4.5: 0; Rango dissoc inh: -9%; Rango-impB inh: -0.3%

What do the screens show for `COc1ccc(CN(C)C(=O)C23CC4CC(CC(Cl)(C4)C2)C3)c(OC)c1OC`?
miR-21 FLuc: 6%; Rango dissoc inh: 1%; Rango-impB inh: -2.5%

How did Nc1ccc(-n2nc3ccccc3n2)cc1 do in these assays?
Rango dissoc inh: inconclusive; Rango-impB inh: inconclusive

Results for CCOc1ccc2nc(NC3=NC(C)(C)C=C(C)N3)nc(C)c2c1 ?
miR-21 FLuc: 14%; GLA inh pH 4.5: -2; Rango dissoc inh: 0%; Rango-impB inh: inconclusive

Results for Cc1nc(NS(=O)(=O)c2ccc(Br)cc2)c2c3c(sc2n1)CCC3 ?
miR-21 FLuc: 1%; GLA inh pH 4.5: -8; Rango dissoc inh: 15%; Rango-impB inh: 1.1%

What do the screens show for `COc1ccc(NC(=O)CN(C)C(=O)/C=C/c2cn(-c3ccccc3)nc2-c2cccs2)cc1`?
Rango dissoc inh: 2%; Rango-impB inh: -0.1%

How did O=C(N/N=C/C(Br)=C/c1ccccc1)c1ccc([N+](=O)[O-])cc1 do in these assays?
miR-21 FLuc: -2%; Rango dissoc inh: 0%; Rango-impB inh: 1.5%

Results for C=CCCCCCCCCC(=O)N1CCN(c2cc3c(cc2F)c(=O)c(C(=O)O)cn3CC)CC1 ?
miR-21 FLuc: -2%; Rango dissoc inh: 0%; Rango-impB inh: 1.5%

How did COc1ccc(NC(=O)Nc2cccc3c2O[C@H](CN(C)C(=O)Nc2ccc(C(F)(F)F)cc2)[C@@H](C)CN([C@H](C)CO)C3=O)cc1 do in these assays?
Rango dissoc inh: 1%; Rango-impB inh: -2.1%

Results for C[C@@H]1CC=C[C@H]2[C@H]1C(=O)N(Cc1ccccc1)[C@H]2c1ccc(-c2ccoc2)cc1F ?
miR-21 FLuc: 17%; GLA inh pH 4.5: -9; Rango dissoc inh: inconclusive; Rango-impB inh: -17%

Results for COc1cccc(C(C2C(=O)CC(C)(C)CC2=O)C2C(=O)CC(C)(C)CC2=O)c1 ?
miR-21 FLuc: 3%; Rango dissoc inh: -7%; Rango-impB inh: -0.2%

How did CCOC(=O)c1c(NC(=O)c2ccn(CC)n2)sc2c1CCC2 do in these assays?
miR-21 FLuc: -5%; Rango dissoc inh: 3%; Rango-impB inh: -3.3%

What do the screens show for `CN(C)c1nc(N(C)C)n(C(=O)c2cccs2)n1`?
miR-21 FLuc: -2%; GLA inh pH 4.5: -3; Rango dissoc inh: -3%; Rango-impB inh: -0.8%

What do the screens show for `CCN(c1ccccc1)S(=O)(=O)c1ccc(F)c(C(=O)O)c1`?
miR-21 FLuc: -3%; GLA inh pH 4.5: -2; Rango dissoc inh: 3%; Rango-impB inh: -1.4%

How did O=C(COC(=O)C1CCC1)Nc1ccc(OC(F)F)cc1 do in these assays?
miR-21 FLuc: -1%; GLA inh pH 4.5: 1; Rango dissoc inh: -7%; Rango-impB inh: -3.2%

Results for O=C(NCC(=O)N(CC1CCCO1)C(C(=O)NC1CCCC1)c1ccc(F)cc1)c1ccco1 (stereo unspecified) ?
miR-21 FLuc: -12%; GLA inh pH 4.5: 0; Rango dissoc inh: 3%; Rango-impB inh: -1.9%

How did CN1CCN(CP(=O)(N2CCOCC2)N2CCOCC2)CC1 do in these assays?
miR-21 FLuc: 0%; GLA inh pH 4.5: 0; Rango dissoc inh: -1%; Rango-impB inh: 3.5%

How did O=C(NCc1ccc2c(c1)OCO2)C1CCN(c2ncccn2)CC1 do in these assays?
miR-21 FLuc: -3%; GLA inh pH 4.5: -5; Rango dissoc inh: 6%; Rango-impB inh: -3.2%

What do the screens show for `CN(C)c1ccc(CNc2ccc3c(c2)ncn3C(C)(C)C)cc1`?
miR-21 FLuc: -7%; Rango dissoc inh: -14%; Rango-impB inh: -0.4%

How did Cc1ccccc1NC(=O)COC(=O)c1c[nH]c(=O)[nH]c1=O do in these assays?
miR-21 FLuc: -1%; GLA inh pH 4.5: 10; Rango dissoc inh: 0%; Rango-impB inh: -0.3%

How did CCCCCSc1nc2c(c(=O)[nH]c(=O)n2C)n1CC do in these assays?
Rango dissoc inh: -6%; Rango-impB inh: -0.7%

What do the screens show for `CCOc1ccc(NC(=O)c2ccc(C#CC(C)(C)O)cc2)cc1`?
miR-21 FLuc: -10%; GLA inh pH 4.5: 2; Rango dissoc inh: -9%; Rango-impB inh: 1.2%

Results for N#Cc1c(Nc2ccccc2)c(C=NCCN2CCOCC2)c[nH]c1=O ?
miR-21 FLuc: 0%; GLA inh pH 4.5: -8; Rango dissoc inh: inconclusive; Rango-impB inh: inconclusive

Results for Cn1c(N)c(C(=O)COC(=O)c2ccc(S(=O)(=O)N3CCCCC3)cc2)c(=O)n(C)c1=O ?
miR-21 FLuc: 1%; GLA inh pH 4.5: -6

What do the screens show for `O=C1CC(NS(=O)(=O)c2ccc([N+](=O)[O-])cc2)CN1c1ccc2c(c1)OCCO2` (stereo unspecified)?
Rango dissoc inh: 8%; Rango-impB inh: 1.0%

What do the screens show for `CCCCN1C(=O)/C(=C/C=C2\Oc3ccccc3N2CC)SC1=S`?
miR-21 FLuc: -4%; GLA inh pH 4.5: -4; Rango dissoc inh: 6%; Rango-impB inh: 5.7%

How did COc1cc(C(=O)NCc2cc3cc(Cl)ccc3n2C)cc(OC)c1OC do in these assays?
miR-21 FLuc: 3%; Rango dissoc inh: 13%; Rango-impB inh: 2.7%

Results for COC(=O)c1[nH]c2c(c1C(=O)OC)CCc1ccccc1-2 ?
miR-21 FLuc: 3%; Rango dissoc inh: -27%; Rango-impB inh: inconclusive

Results for O=C(NCc1cc(Br)cc(Br)c1OC(=O)c1ccccc1[N+](=O)[O-])c1ccccc1 ?
miR-21 FLuc: 24%; GLA inh pH 4.5: -7; Rango dissoc inh: 0%; Rango-impB inh: -0.8%

What do the screens show for `CCOC(=O)NC(=S)Nc1c(C)n(C)n(-c2ccccc2)c1=O`?
miR-21 FLuc: -2%; GLA inh pH 4.5: -15; Rango dissoc inh: -5%; Rango-impB inh: -0.5%

How did Cc1cc(C)n2[nH]c(=O)c(N=Nc3ccccc3)c2n1 do in these assays?
miR-21 FLuc: -4%; GLA inh pH 4.5: -9; Rango dissoc inh: -2%; Rango-impB inh: inconclusive

How did COC(=O)C1=C(C)NC(C)=C(C(=O)OC)C1c1cn(-c2ccccc2)nc1-c1ccco1 do in these assays?
miR-21 FLuc: -13%; GLA inh pH 4.5: -2; Rango dissoc inh: 0%; Rango-impB inh: 1.4%

Results for COc1ccc(C(CNC(=O)c2cccc(S(=O)(=O)Nc3ccc(F)cc3)c2)N(C)C)cc1 (stereo unspecified) ?
Rango dissoc inh: 0%; Rango-impB inh: -5.0%

How did CCOC(=O)c1sc(=NC(=O)c2ccco2)n(C)c1C do in these assays?
miR-21 FLuc: -20%; GLA inh pH 4.5: -3; Rango dissoc inh: -13%; Rango-impB inh: 1.2%

What do the screens show for `O=C(NC1CCN(C(=O)c2ccccc2Br)CC1)c1ccccc1`?
miR-21 FLuc: 0%; Rango dissoc inh: 6%; Rango-impB inh: -1.9%

What do the screens show for `Cc1ccc(C(=O)n2nnc3ccccc32)cc1[N+](=O)[O-]`?
miR-21 FLuc: 1%; GLA inh pH 4.5: -1; Rango dissoc inh: 0%; Rango-impB inh: 0.6%

What do the screens show for `O=C(CN1C(=O)/C(=C\c2cccc(F)c2)Oc2ccccc21)N1CCN(c2ccccn2)CC1`?
miR-21 FLuc: -8%; GLA inh pH 4.5: inconclusive; Rango dissoc inh: 11%; Rango-impB inh: -3.8%

Results for Cc1ccc(NC(=S)N2CC(C)OC(C)C2)cc1C (stereo unspecified) ?
miR-21 FLuc: -10%; Rango dissoc inh: 0%; Rango-impB inh: -2.6%

This is a subset (hit frequency here may not be typical).
